Screens: PubChem BioAssay, several laboratories
LANA-H2A inh: blocks KSHV LANA binding to histone H2A/H2B. inhibition, % (no concentration beside the values). Q9QR71. hit rate 0.6% among 320,000. cell-free LANA-H2A/H2B peptide, fluorescence polarization; in the data active = inhibition mostly above about 10%, no sharp cut-off; inactive = mostly below about 6.7%;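 also: stock transfer was 7.5 nL into about 10 µL; 0% = median of vehicle wells and 100% = median of positive control wells; one replicate is shown; the record names a cut of 25% in any replicate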
E coli growth: E. coli growth inhibition | Escherichia coli growth, OD600, 23 h; active compounds read low | hit rate 0.21% among 330,000 | OD600 absorbance (no concentration beside the values);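 active = OD600 absorbance below the run mean of sample wells minus 3.6 SD, in any replicate, cut at about 0.56 in these data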;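 also: stock transfer was 300 nL into about 60 µL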
ALR H2O2 inh: inhibitors of human sulfhydryl oxidase ALR; P55789; purified ALR, DTT oxidation, H2O2 HRP-luminol luminescence; inhibition, % (no concentration beside the values); hit rate 3.8% among 290,000; AID 485317;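 active = mean and each replicate at 75% or more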;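 also: stock transfer was 7.5 nL into about 7.5 µL; 0% = neutral wells and 100% = wells with inactivated enzyme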
Target sequence (P55789 whole entry, looked up): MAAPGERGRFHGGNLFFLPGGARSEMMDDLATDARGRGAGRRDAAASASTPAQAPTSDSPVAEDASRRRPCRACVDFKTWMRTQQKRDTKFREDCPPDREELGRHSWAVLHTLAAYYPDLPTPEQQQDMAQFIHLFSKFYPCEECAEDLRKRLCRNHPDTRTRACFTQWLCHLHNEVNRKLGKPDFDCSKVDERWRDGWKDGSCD
HNF4A DNA FP: change in binding of human HNF4 alpha to DNA | HNF4a-FITC DNA binding, fluorescence polarization, 1 h | activity change, % at 10 µM | hit rate 0.3% among 360,000 | AID 1224865; in the data active = activity change above about 30%, passing the limit was not always enough;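 also: controls were the assay level and a saturating level of protein; the project sought stronger binding though the title names inhibitors; some compounds called inactive have numbers as strong as hits; positive values seem to mean higher polarization but the record does not say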
B2AR ag: activates human beta-2 adrenergic receptor causing internalization | P07550 | Am2.2-beta2AR cells, FAP receptor internalization, flow cytometry; reference of the scale not given here | response, % (concentration not given with the values) | hit rate 0.43% among 340,000 | AID 504454;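 active = response above a set limit, near 3 SD of response in nonfluorescent compounds, cut at about 42% in these data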;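 also: stock transfer was 100 nL into about 11 µL; a reference agonist was the positive control; negative values mostly stem from fluorescent compounds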
UCH37 inh: blocks the human deubiquitinase UCH37. Q9Y5K5. purified proteasome/UCH37, Ub-AMC cleavage fluorescence. inhibition, % (test concentration not listed). hit rate 0.33% among 330,000. AID 588478;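 active = mean of two replicates above 20%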;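 also: 0% = compound-free wells with enzyme and 100% = wells lacking proteasome; stock transfer was 100 nL into about 20 µL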
Target sequence (Q9Y5K5 whole entry, looked up): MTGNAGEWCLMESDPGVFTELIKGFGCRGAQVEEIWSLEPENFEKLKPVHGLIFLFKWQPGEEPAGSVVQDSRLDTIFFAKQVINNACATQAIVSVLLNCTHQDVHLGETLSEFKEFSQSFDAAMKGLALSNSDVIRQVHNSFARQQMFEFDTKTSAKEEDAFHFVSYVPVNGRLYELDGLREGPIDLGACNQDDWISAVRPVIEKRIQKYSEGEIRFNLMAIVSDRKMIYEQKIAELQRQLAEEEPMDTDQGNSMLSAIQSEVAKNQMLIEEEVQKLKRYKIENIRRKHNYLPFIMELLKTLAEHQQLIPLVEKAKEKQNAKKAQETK
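Test system – human UCH37 enzyme supplied as purified proteasome complex · Incubation – 30 min preincubation with enzyme, 25 min cleavage at room temperature · Detection – AMC fluorescence from Ub-AMC cleavage, excitation 355 nm, emission 460 nm · Benchmarks – no-proteasome wells (full inhibition) and compound-free wells (no inhibition)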
FGF22 binding: binders of recombinant human FGF22 by thermal shift | Q9HCT0 | SYPRO orange fluorescence; percent of sucrose octasulfate shift, DMSO zero | calls only at 9.99 µM | hit rate 1.5% among 340,000 | AID 651658;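 active = melting point raised past a set limit in the mean and every replicate; three in four hits are not shown here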
Target sequence (Q9HCT0 whole entry, looked up): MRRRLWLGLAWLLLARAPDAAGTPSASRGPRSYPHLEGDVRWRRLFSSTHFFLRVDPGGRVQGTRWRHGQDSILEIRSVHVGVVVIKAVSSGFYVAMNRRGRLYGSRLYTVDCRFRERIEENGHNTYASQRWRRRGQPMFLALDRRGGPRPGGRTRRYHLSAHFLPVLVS
Starred values were filed as active, the others as inactive; i = inactive; . = not tested or not shown.

Compound | LANA-H2A inh | E coli growth | ALR H2O2 inh | HNF4A DNA FP | B2AR ag | UCH37 inh | FGF22 binding
CN(C)C(=O)c1cn(CCC#N)nc1-c1ccc2ccccc2c1 | 1.5 | 0.718 | . | -4.5 | 8.9 | 6.9 | i
CC(NC(=O)c1ccco1)C(=O)NC(C)c1cc(F)c(Cl)cc1Cl (centres undefined) | 2.0 | . | -15.4 | 4.0 | 3.3 | . | i
CC(=O)NC1C(OCc2ccccc2)OC2COC(C)(C)OC2C1O (centres undefined) | 3.8 | 0.682 | -4.2 | -0.1 | -5.1 | 2.6 | i
COc1cccc(CNC(=O)c2cc3c(C)nc4ccccc4c3o2)c1 | -5.7 | 0.736 | -2.3 | 4.7 | -1.8 | -1.4 | i
COc1ccc(-c2csc(NC(=S)NC(=O)c3cccs3)n2)cc1OC | . | 0.679 | . | 1.0 | -0.7 | 3.9 | i
Cc1ccccc1CS(=O)(=O)CCC(=O)NCc1ccccn1 | -1.4 | 0.721 | -7.8 | -1.9 | 7.7 | 3.4 | .
Cc1ccc(N/C=C2/Sc3ccccc3NC2=O)cc1 | -8.2 | 0.751 | 24.5 | 31.8 | -0.2 | 4.8 | .
COc1ccc(-c2cc(-c3ccccc3)nc(SCC(=O)Nc3ncc(C)s3)c2C#N)cc1 | -0.7 | 0.717 | -1.0 | -1.1 | -6.4 | -10.4 | i
O=C(NCc1ccco1)Nc1ccc(Br)cc1 | -0.2 | 0.621 | . | 0.5 | -4.1 | -2.4 | .
CCCCN(C)Cc1cc(=O)oc2cc3c(cc12)CCCC3 | 2.0 | 0.643 | -1.3 | -2.5 | -2.0 | 3.6 | i
O=C(Oc1c(-c2ccccc2)c(=O)n2c3c(cccc13)CC2)c1ccccc1 | -4.4 | 0.695 | 4.0 | 1.9 | -11.7 | -4.1 | i
CCc1ccccc1NC(=O)CCCN1C(=O)c2cccnc2C1=O | 2.8 | 0.662 | -9.1 | 5.7 | 3.6 | 3.6 | i
O=C(CCNC(=O)c1ccccc1Cl)NCC(c1ccc(F)cc1)N1CCOCC1 (centres undefined) | 2.5 | 0.671 | 1.1 | -2.5 | -9.1 | 2.2 | i
CC(/C=C/c1ccc(C)o1)=C\C(=O)O | -0.5 | . | 55.2 | -1.5 | 0.7 | . | .
COc1ccccc1N1CCN(c2cc(=O)n(-c3ccc(Cl)cc3)c(=O)[nH]2)CC1 | -1.4 | 0.751 | . | 2.6 | 4.4 | 4.1 | i
CCOc1ccc(Nc2nc(NCC(=O)O)nc(N)c2[N+](=O)[O-])cc1 | 1.4 | 0.682 | 4.9 | -5.5 | 2.4 | 16.4 | i
Cc1cc(C)c(C(=O)CN2C(=O)C(=O)N(C3CCCC3)C2=O)cc1C | -4.5 | 0.676 | 0.1 | 4.1 | 4.0 | 2.5 | i
COc1cccc(Oc2ccc(N)cn2)c1 | 1.8 | 0.69 | 0.8 | 5.5 | -1.5 | -6.7 | .
Cc1onc(-c2c(Cl)cccc2Cl)c1C(=O)N=S(C)(=O)c1ccccc1 (centres undefined) | 4.1 | 0.702 | -2.9 | 0.7 | 0.4 | -1.5 | i
CCCCC1=CC2=CC(=O)C(C)(OC(=O)CC)C(=O)C2=CN1Cc1ccc2c(c1)OCO2 (centres undefined) | -0.6 | 0.675 | . | -4.6 | 12.9 | -0.6 | i
COCc1[nH][nH]c(=O)c1C=Nc1ccc(OC(F)(F)F)cc1 | -2.9 | 0.689 | -7.3 | -0.8 | 4.4 | 4.9 | .
COc1ccc(CC2(CO)CCN(C(=O)NCc3ccccc3)CC2)cc1 | -0.8 | 0.69 | 0.9 | 0.0 | -3.4 | 0.5 | i
COc1ccc(-c2c(-c3cc(OC)cc(OC)c3)n(C)c3ccc(-c4ccc5cc[nH]c5c4)cc23)cc1 | 1.9 | 0.685 | 4.4 | 6.3 | 8.1 | -79.1 | i
O=C(O)CCCC(=O)Nc1ccc(N2CCCC2)cc1 | 7.2 | 0.718 | 21.4 | -4.3 | 5.4 | 2.0 | .
O=C(CN1C(=O)NC2(CCCCCCC2)C1=O)Nc1cccc(Br)c1 | 1.3 | 0.686 | -9.7 | -1.8 | -4.5 | -0.7 | i
Cc1cc(C)nc(CCNC(=O)c2cc(COc3ccc(F)cc3Cl)on2)n1 | 6.9 | 0.657 | -12.6 | -0.9 | -3.8 | 0.2 | i
COc1cccc(-n2c(CN3CCN(c4ccccc4)CC3)nc3ccc([N+](=O)[O-])cc3c2=O)c1 | 3.5 | 0.663 | -3.8 | 3.0 | -15.9 | 6.2 | i
Cc1ccc2c(c1)/C(=N/O)CCS2 | -5.3 | . | -4.4 | -0.2 | -3.5 | . | .
O=C(O)c1ccc(-n2c(/C=C/c3cccc([N+](=O)[O-])c3)nc3ccccc3c2=O)cc1 | -3.1 | 0.655 | 90.4* | 3.3 | 9.9 | 10.4 | i
Cc1ccccc1Nc1nc(N)nc(COC(=O)CCS(=O)(=O)c2ccc(Cl)cc2)n1 | . | 0.652 | . | -0.8 | 1.9 | 1.2 | i
COc1ccccc1N(Cc1cc(=O)[nH]c2ccccc12)C(=O)c1ccc([N+](=O)[O-])cc1 | -1.5 | 0.709 | -7.7 | 1.3 | -4.3 | 10.8 | i
Cc1ccc(NC(=O)CN2C(=O)CCSc3ccc(S(=O)(=O)N4CCCC4)cc32)cc1C | 4.4 | 0.692 | 2.3 | -9.7 | 0.1 | 0.0 | i
COc1cc(C2C(C#N)=C(C)NC(C)=C2C#N)cc(OC)c1OC | 9.8 | 0.666 | -3.5 | 0.1 | 11.2 | -15.6 | .
CCC(C)[C@H]1CNCCN1CCC12CC3CC(CC(C3)C1)C2 (some centres undefined) | -0.6 | . | 1.4 | 1.7 | 4.1 | 2.7 | i
COc1cc(/C=N/S(=O)(=O)CCc2ccccc2)cc(OC)c1O | . | . | . | -0.3 | 3.4 | . | i
COc1ccccc1C(=O)NNC(=O)C1CC=CCC1 (centres undefined) | -2.7 | 0.649 | 2.3 | 0.8 | 1.4 | 2.3 | i
CC(C)(C)n1nc2c(c1NC(=O)c1cccc(Cl)c1)CS(=O)(=O)C2 | -4.3 | 0.672 | -1.3 | -2.6 | -1.7 | 2.3 | i
CCCC(=O)Nc1c(-c2ccc(C)cc2)c(=O)c2ccccc2n1C | -2.7 | 0.699 | -29.1 | 2.4 | -3.2 | -15.5 | i
CSCC(=O)NC1CCCc2c1cnn2-c1cc(F)cc(F)c1 (centres undefined) | -1.0 | 0.65 | 4.2 | -1.7 | 0.0 | 1.2 | i
Cc1ccc(/C(O)=C2/C(=O)C(=O)N(c3ccccn3)C2c2cccc([N+](=O)[O-])c2)cc1 (centres undefined) | -0.8 | 0.671 | 11.3 | -0.9 | -6.7 | 15.7 | i
CC(NCC(c1ccco1)N1CCCCC1)C(=O)NC1CCCC1 (centres undefined) | 2.2 | 0.667 | -9.5 | 0.7 | -5.7 | -5.6 | i
C=CCC1(CC=C)CCCN1Cc1nc(COc2ccccc2)no1 | 0.9 | 0.705 | . | 15.7 | -16.6 | 1.6 | i
O=S(=O)(c1ccc(Br)cc1)N1CCCN(Cc2cccc(F)c2)CC1 | -1.4 | 0.676 | -26.0 | 2.1 | 13.1 | 2.3 | .
CCOC(=O)N1CCC(NC(=O)c2cc(C(=O)Nc3cccc(C(F)(F)F)c3)ccc2CO)CC1 | -3.0 | 0.688 | -6.6 | 1.9 | 12.7 | 2.1 | i
COc1ccc(C(=O)NNS(=O)(=O)c2ccc(C)cc2)cc1 | -1.3 | 0.675 | 30.0 | 6.5 | -2.3 | 5.0 | i
COc1ccc2nc(CC(C)(C)CC(=O)O)c[n+]([O-])c2c1 | 4.9 | 0.705 | -2.4 | 0.3 | 7.5 | -82.1 | .
Cc1nn(C)c(C)c1CNC(=O)Nc1ccc2c(c1)OCO2 | -3.2 | . | -17.1 | 1.4 | 17.3 | . | i
COc1cccc(C(=O)Nc2ccc3c(cc2=O)[C@@H](NC(C)=O)CCc2cc(OC)c(OC)c(OC)c2-3)c1 | 1.9 | 0.678 | -9.9 | -2.8 | -3.8 | -8.0 | .
O=C(c1ccc(Cl)c(F)c1F)N1CCCC1 | 1.1 | 0.663 | . | 4.0 | 5.7 | -0.9 | .
CC1CCCC(C)N1C(=O)C1CC(c2ccc(F)cc2)=NO1 (centres undefined) | -3.8 | 0.686 | 6.1 | 4.4 | 12.5 | -0.4 | .
CCC(C)NC(=O)Cc1c(C)c2cc3c(cc2oc1=O)OC(C)(C)CC3 (centres undefined) | 1.4 | 0.647 | -5.0 | -2.7 | 8.6 | i | i
O=C(O)CCCNC(=O)CC1S/C(=N/N=C/c2ccccc2O)NC1=O (centres undefined) | 0.4 | . | 49.6 | 9.7 | -1.7 | . | i
CSc1ccc(C(=O)C2CCCN(C(=O)c3csc(C(C)=O)c3)C2)cc1 (centres undefined) | 2.2 | 0.649 | 2.8 | 1.9 | -4.5 | 1.0 | i
CCN(CC(=O)NCc1ccc(Cl)cc1)C(=O)CCc1ccccc1O | 2.5 | 0.64 | 53.1 | -0.8 | 7.0 | 1.9 | i
COc1ccc(CNC(=O)COC(=O)Cc2ccsc2)cc1 | -5.3 | 0.658 | -10.4 | 1.1 | 0.7 | 1.2 | .
CC(=O)NCc1nc2ccccc2n1C(C)C | -0.9 | 0.696 | -11.7 | -1.7 | 2.2 | 1.9 | i
CC(C)(C)c1ccc(C(=O)C=[N+]=[N-])cc1 | 3.6 | 0.684 | -11.9 | 0.2 | -2.6 | 3.8 | .
CC(C)CN1CCN(Cc2cc3ccccc3[nH]2)CC1CCO (centres undefined) | 0.9 | 0.684 | -4.9 | -3.1 | 7.9 | 0.0 | i
N#Cc1c2ccc(O)cc2n2ccccc12 | 1.0 | 0.619 | 10.7 | -17.2 | -0.1 | -74.0 | .
O=C(CN1CCN(Cc2ccc(Cl)cc2)C1=O)NCCCN1CCOCC1 | -4.0 | 0.658 | . | -2.8 | -1.0 | 3.0 | i

Additional results follow:
Compound | LANA-H2A inh | E coli growth | ALR H2O2 inh | HNF4A DNA FP | B2AR ag | UCH37 inh | FGF22 binding
Cc1ccc(OCCCC(=O)Nc2ccc(S(=O)(=O)Nc3ccccn3)cc2)cc1 | -7.5 | 0.719 | -3.9 | 2.8 | -8.1 | -6.5 | i
COc1ccccc1CN(Cc1cc2cc(C)ccc2[nH]c1=O)Cc1nnnn1Cc1ccco1 | -2.6 | 0.772 | -1.7 | 12.9 | 2.9 | -3.0 | .
Cc1cc(C)n2nc(S(=O)(=O)Nc3c(Cl)cccc3Cl)nc2n1 | 1.5 | 0.685 | 2.1 | -1.1 | 6.2 | -0.2 | i
COc1cc(-c2[nH]nc3c2C(c2ccoc2)C(C#N)=C(N)O3)cc(OC)c1OC (centres undefined) | -1.6 | 0.701 | -0.1 | 0.9 | 17.6 | 1.6 | .
COc1cc(C(=O)OCCCN2CCOCC2)ccc1O | 6.1 | 0.621 | 98.7* | 3.6 | -0.2 | 0.4 | .
C=CCOC(=O)C1=C(C)NC(SCC(=O)Nc2ccc(C)c(Cl)c2)=C(C#N)C1c1ccco1 (centres undefined) | -2.4 | 0.745 | 98.3* | -0.5 | -9.2 | -254.7 | .
O=C(COC(=O)COc1ccc(Cl)cc1Cl)Nc1cccnc1Cl | 0.2 | 0.697 | -5.2 | 0.5 | -7.7 | 2.0 | i
O=C(Cn1cnc2cc([N+](=O)[O-])ccc2c1=O)NCc1ccc(Cl)cc1 | -3.6 | 0.727 | -5.4 | 3.0 | -7.0 | 3.3 | i
CN(C)c1ccc(/C=C2\C(=N)N3N=C(CC(=O)N4CCCCC4)SC3=NC2=O)cc1 | -8.4 | . | 17.6 | 135.3 | -364.4 | . | i
COc1ccccc1Nc1nc2nonc2[nH]c1=O | -0.6 | 0.672 | 5.7 | -2.8 | 4.1 | 6.7 | i

This is a subset; count on the stated rates, not on these rows.
